High-throughput results deposited in PubChem by several laboratories.
eIF4H FP inh: inhibitors of RNA binding by human eIF4H. hit rate 0.94% among 290,000. AID 2012. inhibition, % at 35 µM. eIF4H fluorescence polarization binding assay. Q15056;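 active = 50% or more with normal probe brightness, or confirmed in later tests; inconclusive = above 50% with abnormal brightness, or retests that disagree; inactive = below 50% or failed in later tests; about a fifth of its hits are not listed in these tables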;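 also: calls also rest on retests at 20 µM and on dose response follow-up; 0% = protein and probe with vehicle and 100% = probe without protein; strong numbers were not always called active; many hits fall short of the cut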
Rce1 inhib: blocks yeast Ras-converting enzyme | hit rate 0.27% among 290,000 | yeast membranes, quenched prenylated peptide cleavage fluorescence | Q03530 | calls only;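 active = fall in fluorescence gain of 50% or more versus controls, with final raw signal at or below 3038400; inconclusive = same 50% fall but final raw signal above 3038400; inactive = fall in fluorescence gain under 50%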;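 also: plate controls were neutral control wells for no effect and wells lacking membranes for full effect; tested at 10 µM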
Yeast UUG start: yeast start codon fidelity modulation | S. cerevisiae UUG-firefly luciferase reporter, luminescence/redox ratio | activity score, % at 18.7 µM | hit rate 0.13% among 350,000 | AID 602363;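 active = replicate mean at a twofold rise or more, about +100% in these data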;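 also: firefly luciferase made from a UUG start codon reports start codon fidelity; reporter light over untreated wells divided by growth signal over untreated wells; some hits fall short of that in this replicate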
MT1-MMP act inh: inhibitors of human MT1-MMP activation; P50281; HT1080 RFP-PRO-GFP cells, GFP/RFP ratio fluorescence, overnight; percent of plate control window, DMSO zero; hit rate 0.061% among 360,000; GFP/RFP ratio change, % at 20 µM; AID 651647;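 active = GFP/RFP ratio change of at least 30% with cell ATP level not reduced by more than half and red fluorescence within 50% of control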; also: strong numbers were not always called active
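Read-out: GFP/RFP fluorescence ratio; Test system: RFP-PRO-GFP reporter HT1080 cells; Compound dosing: single-point 20 µM compound, 1% DMSO; Times: overnight compound exposure at 37 °C.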
CSC inhib: cancer stem cell inhibition. inhibition, % at 7.5 µM. cancer stem cell-like cells viability, luminescence. hit rate 1.1% among 300,000;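 active = mean at 75% or more and at least half the replicates too; inconclusive = mean and replicates disagree; tested in HMLE shEcad cells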;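 also: 0% = median of negative and 100% = median of positive control wells; the first replicate is given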
PABP FP inh: blocks human PABP binding to poly(A) RNA. P11940. fluorescence polarization. inhibition, % at 35 µM. hit rate 1% among 290,000. AID 2014;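 active = 50% or more with normal probe brightness, or confirmed in later tests; inconclusive = above 50% with abnormal brightness, or retests that disagree; inactive = below 50% or failed in later tests; about a fifth of its hits are not listed in these tables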;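 also: calls also rest on retests at 20 µM and on dose response follow-up; controls were probe without protein and protein plus probe with vehicle; some compounds called inactive have numbers as strong as hits; many hits fall short of the cut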
Target sequence (P11940 whole entry, looked up): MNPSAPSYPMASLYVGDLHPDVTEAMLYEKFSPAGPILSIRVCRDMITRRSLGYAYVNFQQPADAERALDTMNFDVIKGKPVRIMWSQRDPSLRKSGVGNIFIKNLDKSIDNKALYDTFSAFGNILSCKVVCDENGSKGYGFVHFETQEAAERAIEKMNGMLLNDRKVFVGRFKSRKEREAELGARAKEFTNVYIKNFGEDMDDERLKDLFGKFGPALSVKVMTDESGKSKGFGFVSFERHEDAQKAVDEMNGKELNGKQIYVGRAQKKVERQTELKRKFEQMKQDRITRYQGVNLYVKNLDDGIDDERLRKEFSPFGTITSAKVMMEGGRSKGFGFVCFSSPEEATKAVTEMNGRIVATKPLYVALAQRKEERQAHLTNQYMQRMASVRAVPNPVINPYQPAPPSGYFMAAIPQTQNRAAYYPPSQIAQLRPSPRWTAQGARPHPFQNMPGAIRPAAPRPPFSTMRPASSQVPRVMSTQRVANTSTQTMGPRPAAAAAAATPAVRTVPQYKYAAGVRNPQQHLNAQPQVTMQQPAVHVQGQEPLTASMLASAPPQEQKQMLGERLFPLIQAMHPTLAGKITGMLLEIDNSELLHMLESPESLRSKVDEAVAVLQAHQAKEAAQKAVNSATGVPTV
HIV Env fusion: HIV envelope-mediated fusion inhibition. HeLa-JRFL Env/CEM21 cell fusion, luciferase. inhibition, % at 12.3 µM. hit rate 1.1% among 360,000;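 active = mean replicate inhibition score of at least 50 and every replicate individually at or above 50; inconclusive = only one of the two criteria met; inactive = mean below 50 and not all replicates reaching 50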;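 also: 0% = plate neutral controls and 100% = maraviroc near 300 nM; one replicate is shown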
eIF4H FP inh retest: further read-out of eIF4H FP inh, marked with its call; inhibition, %; compound at 20 µM; confirmation average;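 mean of two retest wells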
PABP FP inh retest: recorded beside PABP FP inh, whose call it bears; inhibition, %; compound at 20 µM; confirmation repeats;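 mean of two retest wells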
MT1-MMP act inh RFP: second read-out of MT1-MMP act inh, no call of its own (marks repeat the call); RFP signal change, %; measured here: RFP expression control read;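 0 = vehicle wells; hits needed this value within 50% of zero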
* = called active by the depositor; i = inactive; ? = inconclusive; . = no result given.

SMILES	eIF4H FP inh	Rce1 inhib	Yeast UUG start	MT1-MMP act inh	MT1-MMP act inh RFP	CSC inhib	PABP FP inh	HIV Env fusion	others
CN(CCCNC(=O)Cn1cc2c(n1)CCCC2)C1CCCCC1	-3	i	-15	2	5	7	16	-1
CCC(OC(=O)c1nsc(Cl)c1Cl)C(=O)NCCOC (stereo unspecified)	-14	i	.	-4	-1	-5	2	2
O=C(CSc1nnc(Cc2ccccc2)n1-c1ccccc1)N1CCOCC1	-12	.	-6	-4	-5	6	11	-27
COc1ccc(C2CC(=O)c3cnn(-c4nc(C)cc(C)n4)c3C2)cc1 (stereo unspecified)	-6	i	.	0	-4	11	11	12
Cc1c(CCO)c(=O)n(-c2ccccc2)n1S(=O)(=O)c1c(Cl)cc(Cl)cc1Cl	-11	i	13	-7	-6	-2	-1	-9
CCOc1ccccc1NC(=O)CCC(=O)O	-7	i	-5	5	0	-5	-10	-20
O=C(O)c1cc2c(cc1NC(=O)c1c(F)cccc1F)OCCCO2	2	i	-13	0	2	-5	13	12
C/C(=N\O)C(C)NC(=O)c1ccccc1 (stereo unspecified)	-6	i	.	2	4	-5	-3	-18
CCOc1ccc(CCNC(=O)c2cccc(S(=O)(=O)N3CCCCC3)c2)cc1OCC	.	i	.	-2	-19	-10	.	2
Cc1ccccc1-n1nnnc1SCC(=O)Nc1ccc(N2CCN(C)CC2)cc1	-8	i	-6	-8	-2	3	-4	1
O=S(=O)(NC(CO)Cc1ccccc1)c1cc(Cl)ccc1F (stereo unspecified)	.	.	-4	2	2	.	.	4
Cc1ccc(C(=O)N/N=C(/CC(=O)c2cccs2)C(F)(F)F)cc1	2	i	-3	-6	-17	30	2	3
COc1ccc(CCNC(=O)CSc2cn(Cc3ccccc3)c3ccccc23)cc1OC	-4	i	-3	-3	-10	4	7	52
CCOC(=O)C1=C(C)N(CCCC(=O)O)C(=O)NC1c1ccc(OC)cc1 (stereo unspecified)	-6	i	-16	2	0	-9	5	-11
O=c1[nH]c(SCCOc2ccccc2F)nc2ccccc12	4	i	.	-2	-4	16	9	-15
CC(C)NC(=O)CN(C(=O)CCC(=O)Nc1nccs1)c1ccc2c(c1)OCO2	?	i	-11	-4	2	.	9	-11
Cc1ccc2c(C)nc(SC(C(=O)c3ccccc3)c3ccccc3)nc2c1 (stereo unspecified)	-4	i	.	0	-3	11	-9	4
Cc1n[nH]c(C)c1-c1nc2ccccc2[nH]1	-5	i	8	3	4	-1	-5	.
Cc1cc(C)cc(NC(=O)c2ccc(CN3CCc4ccccc4C3)cc2)c1	-2	i	-21	-4	-21	57	8	10
C=C(C)COc1ccc2c(C)c(CC(=O)OC)c(=O)oc2c1C	-7	.	-2	2	-21	-9	-2	.
CC(C)=CC1C(C(=O)Nc2ccc(Br)cn2)C1(C)C (stereo unspecified)	-2	i	.	-11	-8	7	-2	.
CCOc1cccc2sc(N(CCN(C)C)C(=O)c3cc4ccccc4cc3OC)nc12	-8	i	-2	-3	-5	33	-4	25
O=C(CNC(=O)c1ccco1)Nc1ccc(OC(F)F)cc1	-2	i	-5	0	3	0	-12	-16
CCN(C(=O)COC(=O)CCC(=O)c1cccs1)C1CCCCC1	.	.	13	5	5	-3	.	.
COc1ccc(Br)c(Cn2c(C)c(C(=O)NCc3ccccc3C(F)(F)F)sc2=O)c1	.	.	-3	-1	-10	.	.	-46

(next part)
SMILES	eIF4H FP inh	Rce1 inhib	Yeast UUG start	MT1-MMP act inh	MT1-MMP act inh RFP	CSC inhib	PABP FP inh	HIV Env fusion	others
COc1cc(CNCC2CCCO2)ccc1OCC(N)=O (stereo unspecified)	-2	i	.	-2	0	-10	-7	-13
O=C(NCCCn1ccnc1)C1CCN(S(=O)(=O)c2ccc(F)cc2)CC1	-1	i	-16	1	0	-9	3	-2
CCN(CC)C(=O)CSc1nc2nc(C)cc(C)c2c(=O)[nH]1	-13	i	-15	2	0	-3	-16	.
CCCCC(=O)N(C)c1c(CC)nc2c(OCc3ccc(C#N)cc3)cccn12	.	.	-5	0	-1	.	.	22
CCCn1c(C(C)NS(=O)(=O)c2ccccc2)n[nH]c1=S (stereo unspecified)	1	i	0	4	1	-5	0	1
C=C1C(=O)C=C[C@]2(C)C[C@@H]3OC(=O)[C@](C)(O)[C@H]3C[C@@H]12	-4	i	-2	6	-18	?	-5	-330
Cc1c(NC2=CC(=O)CCC2)c(=O)n(-c2ccccc2)n1C	-6	i	-2	-4	-1	-14	-15	5
CCCn1c(SC(C)C(=O)NCC2CCCO2)nc2sc3c(c2c1=O)CCC3 (stereo unspecified)	.	i	.	0	-2	-16	.	.
CCOc1ccccc1-n1c(SCC(=O)N(C(C)C)C(C)C)nnc1-c1cccnc1	-17	i	-3	-6	-3	-12	0	-30
CC(=O)Nc1ccc2c(O)cc(S(=O)(=O)O)cc2c1	.	.	-17	4	7	.	.	6
COc1ccccc1C(NC(=O)CC(C)C)c1c(O)ccc2ccccc12 (stereo unspecified)	10	i	-14	-3	-8	-15	3	5
O=C(NNC(=O)c1cc(Cl)ccc1O)c1ccc(NS(=O)(=O)c2cccs2)cc1	.	i	-22	7	2	95*	.	3
Cc1ccc2c(CN3CCCCC3)cc(=O)oc2c1	2	i	-20	-2	1	-3	8	-2
O=C(/C=C/c1cccc([N+](=O)[O-])c1)NCCc1ccc(F)cc1	-6	i	.	3	1	24	8	-9
CC(=O)Nc1ccc(OC(=O)c2cc3cc(Br)cc(Br)c3oc2=O)cc1	19	i	.	.	.	6	2	19
CNS(=O)(=O)c1ccc(CNC[C@H]2O[C@@H](n3cnc4c(=O)[nH]c(N)nc43)[C@H](O)[C@@H]2O)cc1	.	.	0	0	2	.	.	-53
CCN(C[C@H]1N[C@@](CC)(C(=O)OC)[C@H]2C(=O)N(Cc3ccccc3)C(=O)[C@@H]12)C(=O)c1ccc(C(C)(C)C)cc1	.	.	5	-26	-14	.	.	?
CCOc1ccc(Oc2ccc(NS(=O)(=O)c3ccc(CCC(=O)O)cc3)cc2)cc1	.	.	-13	2	-10	.	.	10
CCCCc1ccc(Nc2ncnc3nc[nH]c23)cc1	3	i	-56	1	-4	14	-2	-81
CC(C)N1CCN(C(=O)c2ccc([N+](=O)[O-])cc2)CC1	.	i	-6	0	2	-3	.	4
COc1ccc(/C=C2\SC(=S)N(CCC(=O)Nc3cccc(O)c3)C2=O)cc1OC	8	i	-26	1	2	10	-8	-5
CNC(=O)C1(C(F)(F)F)C/C(=C\CCO)CCCO1 (stereo unspecified)	-1	i	-15	1	3	-3	-2	-26
COc1ccc(C(=O)NCC(=O)OCc2cccc(Br)c2)cc1	-6	i	-16	4	1	.	8	.
CCNC(=O)Cc1ccc(S(=O)(=O)N2CCOCC2)s1	.	.	-9	-1	5	-16	.	.
CCCCc1ccc(NC(=O)CSc2nc(=O)n(CCN(CC)CC)c3c2CCCC3)cc1	.	i	-9	-1	-1	4	.	14

(list continues)
SMILES	eIF4H FP inh	Rce1 inhib	Yeast UUG start	MT1-MMP act inh	MT1-MMP act inh RFP	CSC inhib	PABP FP inh	HIV Env fusion	others
OCCN1CCN(CC(O)COCC2COc3ccccc3O2)CC1 (stereo unspecified)	6	i	-9	-1	-3	-8	-7	4
CCc1cc(C(=O)NCC(C)(C)N2CCOCC2)sc1C	.	i	.	1	4	-11	.	5
O=C(Cn1c(=O)oc2ccccc21)Nc1ccc(Br)cc1	-14	i	-18	3	-1	-10	-4	-8
O=C(COc1ccc(Br)cc1)N1CCc2ccccc21	3	i	.	-1	0	17	7	-69
CC(=C/c1ccccc1)/C=N/Nc1nc(N2CCOCC2)nc(N2CCOCC2)n1	-1	i	-27	0	3	-8	-16	.
Cc1ccc(C(O)(c2ccccc2)c2ccccc2C(C)N(C)C)c(C)c1 (stereo unspecified)	-3	i	.	-12	-12	21	-5	79*
CCN1CCN(C(c2ccccc2F)c2nnnn2Cc2ccc3c(c2)OCO3)CC1 (stereo unspecified)	-8	i	1	-6	-1	.	12	.
Cc1ccc(C)c(NCc2n[nH]c(=S)n2-c2ccccc2)c1	5	i	.	0	3	1	-14	-27
CC(C)NCC(O)COCc1ccc(Cl)cc1 (stereo unspecified)	3	i	.	4	-2	-2	-1	-40
CCN(c1ccccc1)S(=O)(=O)c1ccc(C(=O)Nc2cccc(C)n2)cc1	.	.	-4	0	-16	6	.	7
Cc1cc(C)nc(N2CCN(CC(=O)NCc3ccccc3)CC2)n1	0	i	-4	8	4	-11	5	17
COC(=O)Cc1[nH]n(-c2nc3ccccc3s2)c(=O)c1C(C)=Nc1ccc(C)cc1	-2	i	.	4	7	-5	-5	40
FC(F)Sc1nc(-c2ccccc2)c(-c2ccccc2)n1C(F)F	-5	i	-17	-7	-10	26	-8	-36
CCCOc1cccc(OCCSc2nc(C)cc(=O)[nH]2)c1	-8	i	0	-1	0	5	2	-25
O=C(O)c1cccc(-c2ccc(/C=N/NC(=O)C3COc4ccccc4O3)o2)c1 (stereo unspecified)	72*	i	.	5	4	8	12	-23	eIF4H FP inh retest=57*;PABP FP inh retest=16
Cc1nc2ccccc2c(=O)n1-c1ccc(NS(=O)(=O)c2ccc(F)cc2)cc1	.	i	.	3	-2	-5	.	2
CN(C)C(=O)CCc1ccc2c3c([nH]c2c1)[C@]1(CCC2CCCC2)[C@@H](C(=O)N2CCOCC2)C[C@H](CC(=O)NCC24CC5CC(CC(C5)C2)C4)C(=O)N1CC3	.	.	-3	-12	-18	.	.	?
O=C(CCC(=O)N1CCN(c2ccc(Cl)c(Cl)c2)CC1)c1ccccc1	9	i	-5	-2	-5	-11	0	5
COc1ccc(CC(=O)Nc2cccc(C(=O)NN3C(=O)c4ccccc4C3=O)c2C)cc1	-1	i	.	-3	6	-1	8	.
CCO[C@@H]1OC(C(=O)NCc2nc3ccccc3[nH]2)=C[C@H](C2CCCCC2)[C@H]1CCCO	10	i	-6	-3	-4	-9	-4	27
CCOC(=O)c1c(-c2ccc(C)cc2)csc1NC(=O)CCN1CC(C)OC(C)C1 (stereo unspecified)	8	i	-1	-6	-9	-1	-4	13
O=C1c2ccccc2NC(c2ccc3c(c2)OCCO3)N1c1ccc2c(c1)OCCO2 (stereo unspecified)	-10	i	-54	4	-2	-4	-8	.
Oc1ccc(Nc2ccc3ccccc3c2)cc1	.	.	-26	8	-3	.	.	8
COc1cc(C#N)c(NC(=O)CN2CCN(CCO)CC2)cc1OC	8	i	.	2	3	32	12	-19
O=C(NCCS(=O)(=O)NCc1ccc2c(c1)OCO2)c1ccccc1	.	i	-5	0	3	-2	.	.

The results go on:
SMILES	eIF4H FP inh	Rce1 inhib	Yeast UUG start	MT1-MMP act inh	MT1-MMP act inh RFP	CSC inhib	PABP FP inh	HIV Env fusion	others
COc1ccc(/C=N/NC(=O)C(C)Sc2ccccn2)cc1[N+](=O)[O-] (stereo unspecified)	-7	i	.	3	-1	-9	2	-1
O=C(CC1CCC1)NC(c1ccccc1)c1ccccc1	0	i	-3	-2	1	-7	0	5
CCOc1ccc(OCc2ccc(C(=O)NCc3ccncc3)o2)cc1	5	.	-18	-13	-14	-6	6	.
CSc1cccc(NC(=O)c2[nH]c(C)c(C(C)=O)c2C)c1	6	i	.	5	-3	2	6	-46
CC1=C(C(=O)OCc2ccccc2)C(c2ccc([N+](=O)[O-])cc2)NC(=O)N1CCCC(=O)O (stereo unspecified)	9	i	-19	4	-1	-5	7	-18
COc1cc(/C=C2\NC(=S)N(C)C2=O)ccc1OCc1ccccc1F	-9	i	0	-24	-20	14	-4	18
CN(C)S(=O)(=O)c1ccc(C(=O)Nc2nnc(SCc3cccc4ccccc34)s2)cc1	3	i	.	-10	-2	15	12	2
